HPGD inh: inhibitors of human 15-hydroxyprostaglandin dehydrogenase (HPGD); purified HPGD, NADH fluorescence kinetic, PGE2 substrate; Potency, µM, without a hit: at the top dose activity change, negative = inhibition, usual class: inhibitors; 150,000 tested, 4.3% active; active = well fitted inhibition curve with a large enough effect (not every such curve was filed as active); inconclusive = small, poorly fitted or top-dose-only effect, or another doubt; inactive = no such curve, though single readings can be large or run the other way;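 note: top concentration of the series not given in the record; plate controls included wells without enzyme; inactives centre near -10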
Target sequence (P15428 whole entry, looked up): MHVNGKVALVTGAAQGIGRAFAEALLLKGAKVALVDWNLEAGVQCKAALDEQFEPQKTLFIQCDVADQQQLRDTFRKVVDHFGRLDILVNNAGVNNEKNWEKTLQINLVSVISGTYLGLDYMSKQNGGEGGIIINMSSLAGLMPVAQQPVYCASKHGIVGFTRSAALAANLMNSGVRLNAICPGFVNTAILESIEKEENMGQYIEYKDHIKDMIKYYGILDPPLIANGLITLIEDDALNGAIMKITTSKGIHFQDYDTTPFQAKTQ
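20 nM HPGD preincubated 15 min at room temperature with compound in 50 mM Tris-HCl pH 8, 0.01% Tween 20. Started with 1 mM NAD+ and 30 uM prostaglandin E2; NADH fluorescence (360/450 nm) read 5 times over 30-s intervals, last minus first.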
Active calls of the source: *; ? = inconclusive; & = joins results of further samples; ! = not confirmed by another sample. % is set by controls: 0 for no effect and ±100 for the full control effect; potency is the fitted concentration of half-maximal effect. Only part of the results is shown (hit frequency here may not be typical).

SMILES	HPGD inh
CN(C)CCOc1ccccc1Cc1ccccc1	-2%
COc1ccc(/C=C\C(=O)Nc2ccccc2C(=O)O)cc1OC	?
C[C@@H]1C[C@H]2[C@@H]3C[C@H](F)C4=CC(=O)C=C[C@]4(C)[C@@]3(F)[C@@H](O)C[C@]2(C)[C@@]1(O)C(=O)COC(=O)C(C)(C)C	-12%
CNc1c2c(nn1C)CCCC2	-14%
Cc1cc(C)cc(OCC2CNC(=O)O2)c1 (stereo not given)	-11%
Nc1ncnc2nc[nH]c12	-11%
CCn1cc(C(=O)O)c(=O)c2cc(F)c(N3CCNCC3)nc21	-8%&-4%
Nc1c2c(nc3ccccc13)CCCC2O (stereo not given)	-6%&-9%
CCCCC(=O)O[C@]1(C(=O)CO)[C@H](C)C[C@H]2[C@@H]3CCC4=CC(=O)C=C[C@]4(C)[C@@]3(F)[C@@H](O)C[C@@]21C	1%
COc1cc([C@H]2Oc3cc([C@H]4Oc5cc(O)cc(O)c5C(=O)[C@@H]4O)ccc3O[C@@H]2CO)ccc1O	-24%
C#C[C@@]1(O)CCC2C3CCC4=CC(=O)CCC4C3CC[C@@]21CC (stereo not given in full)	-9%
CCOC(=O)NNc1nncc2ccccc12	-9%&-8%
CCCCOc1ccc(CC(=O)NO)cc1	-6%&-4%&-6%
Cc1cccc(Nc2cc(Cl)nc(SCC(=O)O)n2)c1C	25µM*!
CCc1c2c(nc3ccc(OC(=O)N4CCC(N5CCCCC5)CC4)cc13)-c1cc3c(c(=O)n1C2)COC(=O)[C@]3(O)CC	?
O=C(O)CNC(=O)c1ccccc1	-18%
NC(N)=NC(=O)Cc1c(Cl)cccc1Cl	-10%&-7%&-6%&-4%
COc1cc([C@@H]2Oc3cc([C@H]4Oc5cc(O)cc(O)c5C(=O)[C@H]4O)ccc3O[C@H]2CO)ccc1O	35µM*
Nc1c2ccccc2nc2ccccc12 (tested in a mixture with another compound)	?
COc1ccc(/C=C/C(=O)O)cc1	-7%
CC1CC2C3CC(F)C4=CC(=O)C=C[C@@]4(C)[C@@]3(F)C(O)C[C@]2(C)[C@]1(O)C(=O)COC(=O)C(C)(C)C (stereo not given in full)	-7%
COc1ccccc1OCCNCC(O)COc1cccc2[nH]c3ccccc3c12 (stereo not given)	-3%
CC(=O)Nc1ccccc1	-7%&-11%
CCCOC(=O)c1ccc(O)cc1	-5%&-4%
CC1CCC(C(C)C)C(=O)C1 (stereo not given)	-7%

Reformatted: four of the compounds above.
| SMILES | HPGD inh |
| --- | --- |
| CC1CCC(C(C)C)C(=O)C1 (stereo not given) | -7% |
| CC1CC2C3CC(F)C4=CC(=O)C=C[C@@]4(C)[C@@]3(F)C(O)C[C@]2(C)[C@]1(O)C(=O)COC(=O)C(C)(C)C (stereo not given in full) | -7% |
| Cc1cccc(Nc2cc(Cl)nc(SCC(=O)O)n2)c1C | 25µM*! |
| CC(=O)Nc1ccccc1 | -7%&-11% |

Grouped by structure: those above containing a tert-butyl group
SMILES	HPGD inh
C[C@@H]1C[C@H]2[C@@H]3C[C@H](F)C4=CC(=O)C=C[C@]4(C)[C@@]3(F)[C@@H](O)C[C@]2(C)[C@@]1(O)C(=O)COC(=O)C(C)(C)C	-12%
CC1CC2C3CC(F)C4=CC(=O)C=C[C@@]4(C)[C@@]3(F)C(O)C[C@]2(C)[C@]1(O)C(=O)COC(=O)C(C)(C)C (stereo not given in full)	-7%

(listing goes on)
SMILES	HPGD inh
COc1ccccc1OC[C@H](O)COC(N)=O	6%
CCCCNC(=O)[C@@H]1Cc2ccccc2N1C(=O)[C@H](N)CC	-10%
Cn1c(=O)c2c(ncn2CCO)n(C)c1=O	-13%&-6%
CC1(C)OC2CC3C4CC(F)C5=CC(=O)C=C[C@@]5(C)[C@@]4(F)C(O)C[C@@]3(C)[C@]2(C(=O)CO)O1 (stereo not given in full)	-4%
CCCCCCc1ccc(O)cc1O	-26%&-13%
COc1ccc2ccc(=O)oc2c1	?
CC[C@@]1(O)CC2CN(CCc3c([nH]c4ccccc34)[C@](C(=O)OC)(c3cc4c(cc3OC)N(C)C3[C@@](O)(C(=O)OC)C(OC(C)=O)[C@]5(CC)C=CCN6CC[C@@]43C65)C2)C1 (stereo not given in full)	-4%
Cc1cccc(C)c1NC(=O)C1CCCCN1C (stereo not given)	-1%&-5%
COc1ccc2nc(NC(=O)Nc3ccccc3)sc2c1	-11%
O=c1cc(-c2ccc(O)cc2)oc2cc(O[C@@H]3O[C@H](CO)[C@@H](O)[C@H](O)[C@H]3O[C@@H]3OC[C@](O)(CO)[C@H]3O)cc(O)c12	-28%
COc1ccc(-c2cc(=O)c3c(O)c(OC)c(OC)c(OC)c3o2)cc1OC	-14%
CCC(=O)O[C@@]1(C(=O)SCF)[C@@H](C)C[C@H]2[C@@H]3C[C@@H](F)C4=CC(=O)C=C[C@@]4(C)[C@]3(F)[C@@H](O)C[C@]21C	-7%

Taken from the entries so far, five compounds:
SMILES	HPGD inh
COc1ccccc1OC[C@H](O)COC(N)=O	6%
CCCCNC(=O)[C@@H]1Cc2ccccc2N1C(=O)[C@H](N)CC	-10%
Cn1c(=O)c2c(ncn2CCO)n(C)c1=O	-13%&-6%
CC1(C)OC2CC3C4CC(F)C5=CC(=O)C=C[C@@]5(C)[C@@]4(F)C(O)C[C@@]3(C)[C@]2(C(=O)CO)O1 (stereo not given in full)	-4%
CCCCCCc1ccc(O)cc1O	-26%&-13%

Screening results deposited in PubChem BioAssay by National Center for Advancing Translational Sciences (NCATS).
